# ugtP null kill: kills S. aureus RN4220 lacking UgtP; hit rate 0.54% among 330,000; growth inhibition, % (no concentration beside the values); S. aureus RN4220 ugtP deletion, OD600 growth, 16 h; some inactives read as strong as hits; AID 1259309;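 active = z-score under -3 and OD600 up to 0.15 on both plates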;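 note: plate controls were untreated wells for no effect and antibiotic for full effect; wells of about 80 µL received 100 nL stock; the first replicate is given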
# Mtb hypoxia rep: reduces hypoxia-regulated biosensor signal in M. tuberculosis. fluorescence inhibition, % (no concentration beside the values). hit rate 0.1% among 300,000. M. tuberculosis hypoxia-regulated fluorescent reporter, fluorescence;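 active = 35 to 45% if threefold the growth effect, above 45% if 1.5-fold the growth effect; inactive = the rest, general growth blockers included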;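 note: wells of about 50 µL received 100 nL stock; 0% = vehicle wells and 100% = reference inhibitor wells; whole bacteria with a GFP reporter of the hypoxia response; strong numbers were not always called active; many hits fall short of the cut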
# Bead autofluor: counter-screen for toxin protease inhibitors: compound fluorescence | compound autofluorescence counterscreen, microsphere flow cytometry; active compounds read high | fluorescence intensity (test concentration not listed) | hit rate 3.1% among 360,000 | AID 624483;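 active = at least 3 SD above the mean of all compounds, about 16000 in these data; inconclusive = too few beads counted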;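 note: 100 nL of 1 mM stock went into each well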
# PrP UTR inh: inhibition of PrP 5' UTR reporter expression. hit rate 0.35% among 340,000. cell-based PrP 5' UTR mRNA reporter, plate reader. inhibition, % (no concentration beside the values);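 active = every replicate at 50% or more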;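 note: 0 = median of the neutral control wells; tested in H4 reporter cells; numbers are from one replicate; inactives centre near -14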
# BJeLR viability: BJeLR cell viability loss. BJeLR (HRASV12) viability, CellTiter-Glo ATP luminescence, 48 h; reference of the scale not given here. inhibition, % (no concentration beside the values). hit rate 0.17% among 300,000. AID 1554;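 active = replicate mean above 50%; inconclusive = above 50% but judged a plate artefact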;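 note: 50 nL library stock added to about 25 µL; numbers are from one replicate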
# Sa RN4220 lethal: kills Staphylococcus aureus RN4220. S. aureus RN4220 growth, OD600, 16 h. inhibition, % (concentration not given with the values). hit rate 0.33% among 330,000. AID 1259311;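 active = z-score of -3 or lower and OD600 up to 0.18 on both plates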;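 note: plate controls were untreated cells for no effect and reference antibiotic for full effect; stock transfer was 100 nL into about 80 µL; one replicate is shown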
# Mtb hypoxia rep growth: also measured in Mtb hypoxia rep; calls as there; growth inhibition, %; measured here: M. tuberculosis growth (absorbance);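 0% = vehicle and 100% = reference antibiotic; read after six days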
# * marks the source's active call; other numbers are inactive results; ? = inconclusive; . = no result given.
SMILES,ugtP null kill,Mtb hypoxia rep,Mtb hypoxia rep growth,Bead autofluor,PrP UTR inh,BJeLR viability,Sa RN4220 lethal
Cc1cccc(NC(=O)Cn2c(=O)n(Cc3ccccc3)c(=O)c3c(C)c(C)sc32)c1,.,.,.,2497,-6,8,.
COc1cc(NC2=CC(=O)CC(C)(C)C2)cc(OC)c1,4,7,9,9144,-7,6,3.5
O=C(CNC(=O)c1ccc(Cl)cc1Cl)NCCCn1ccnc1,8,2,2,3177,5,-8,4.2
CSc1ncccc1C(=O)N1CCCC(Nc2ccc(C)c(C)c2)C1 (stereo not given),1,-4,-2,4116,-11,4,1.0
C=CCn1c(CCNC(=O)c2ccccc2F)nnc1SCC(=O)Nc1ccccc1F,-1,-7,-4,4459,-13,-3,3.3
CCOC(=O)C1CCCN(C(=O)Nc2c(-c3ccccc3)noc2C)C1 (stereo not given),-3,-18,-6,4119,-12,-4,2.9
N#CCCN(C(=O)COC(=O)C1CCN(S(=O)(=O)c2ccc3c(c2)OCCO3)CC1)c1ccccc1,1,8,2,6014,-7,-3,-2.4
CCOC(=O)C1CCN(C(=O)c2cc(OCC)c(OCC)c(OCC)c2)CC1,6,.,.,4762,-9,-4,-1.0
Cc1nc(Cl)sc1C(=O)Nc1ccc2ccccc2c1,-12,7,6,2360,-75,0,3.2
CCOc1ccccc1N(CC(=O)NC1CCCC1)C(=O)CCCC(=O)Nc1ccccn1,-2,.,.,2404,-1,-9,-20
Cn1nc(C(F)(F)F)c(C#N)c1N1CCN(c2ccc(F)cc2)CC1,11,-4,-1,2934,0,-8,16
Cc1ccc(SCC(=O)OC(C)C(=O)NC2(C#N)CCCCC2)cc1 (stereo not given),2,-3,-5,?,-3,-3,6.5
Clc1cccc(N2CCNCC2)c1Cl,-6,2,8,19873*,-18,-10,-0.6
CC1(C)C[C@@H](O)CC2(C1)C[C@]1(C)CC(O)[C@H]2C(C)(C)C1 (stereo not given in full),-4,0,-3,.,.,-8,10
Cc1c2cnn(CC(=O)N3CCC4(CC3)OCCO4)c(=O)c2c(C)n1Cc1cccc(Cl)c1,-15,-2,-7,4083,7,1,-5.6
COc1ccc(C=NNc2nc(-c3ccc(Cl)cc3)cc(C(F)(F)F)n2)cc1OC,-11,-15,2,.,.,.,13
COc1cc(/C=C/C(=O)OCC(=O)NCc2ccc3c(c2)OCO3)cc(OC)c1OC,1,0,-2,5011,-18,.,7.1
CCCCCN(C(=O)CCC(=O)OCc1cccc(F)c1)c1c(N)n(CCCC)c(=O)[nH]c1=O,0,0,-2,.,-7,-1,2.9
CN(C)S(=O)(=O)c1cccc(C(=O)OCC(=O)Nc2ccc3c(c2)OCCO3)c1,1,23,38,8894,-20,.,2.4
CNc1ccc(OC)cc1-n1cnc(-c2ccc([N+](=O)[O-])cc2)c1,2,-2,7,3408,-2,3,0.2
N#Cc1cc(C(=O)c2ccccc2O)cn(-c2nccs2)c1=O,-14,7,1,3150,-4,3,12
CCCCCCC#Cc1ccc2c(c1)COc1c3ccccc3nn1-2,9,20,5,2951,-20,-4,5.4
COc1ccc(N2CC(C)Cn3c2nc2c3c(=O)n(Cc3ccccc3)c(=O)n2C)c(OC)c1 (stereo not given),4,-5,-2,4702,-4,7,-0.7
C=CCOC(=O)C1=C(C)NC(C)=C(C(=O)OCC=C)C1/C=C/c1ccccc1,20,1,6,3810,-10,6,3.0
O=C(NCc1ccccn1)C1Nc2ccc(C(F)(F)F)cc2C2C=CCC12 (stereo not given),.,.,.,3738,-17,14,.
# (list continues)
SMILES,ugtP null kill,Mtb hypoxia rep,Mtb hypoxia rep growth,Bead autofluor,PrP UTR inh,BJeLR viability,Sa RN4220 lethal
Cc1nnc(SCC(=O)N(CC(C)C)c2c(N)n(CC(C)C)c(=O)[nH]c2=O)n1-c1ccccc1,10,-3,3,3991,-4,-4,6.7
N#CCC(=O)N/N=C/c1coc2ccccc2c1=O,.,.,.,6110,-28,7,.
COC(=O)c1ccccc1Oc1cnc2ccccc2n1,2,4,-2,3103,-15,-11,3.0
COCc1c(Br)c(C)nc(OCC(=O)N/N=C/c2cc(C)n(-c3ccc([N+](=O)[O-])cc3)c2C)c1C#N,.,.,.,2245,-12,-2,.
COc1cc(/C=N/NC(=O)c2ccc(Cn3cc([N+](=O)[O-])cn3)o2)cc(Br)c1O,.,.,.,4037,-19,9,.
CCOC(=O)c1c(CN2CCC(C)CC2)n(C)c2cc(Br)c(OC)cc12,79,-1,1,5554,-15,-4,-0.5
Cc1ccc(NC(=O)CC2SC3=NCCN3C2=O)cc1 (stereo not given),-3,3,8,22351*,-26,-3,4.5
COc1ccccc1C(=O)Nc1cccc2nc(C)ccc12,3,15,0,3926,-21,-3,5.3
COC(=O)c1ccc(/C=N/N2C(C)CCCC2C)cc1 (stereo not given),.,.,.,3529,-45,-5,.
COc1ccc(NC(=O)COc2ccc(C=NNC(=O)c3cccnc3)cc2OC)cc1,6,8,9,.,.,.,0.1
CCCCCOC(=O)Cc1c(C)nc(-c2ccccc2)[nH]c1=O,9,.,.,2210,-5,-4,1.3
COc1cccc(C(=O)NCC(=O)OCc2ccc(F)cc2Cl)c1,6,3,-1,2569,-13,3,2.3
CC(C)(C)c1cc(Cc2ccccc2)[nH]n1,-13,9,7,23025*,-33,-14,9.3
Cc1cc2nnc(SCC(=O)N(C)C3CCS(=O)(=O)C3)n2c2ccccc12 (stereo not given),6,10,-3,4761,-18,-1,2.9
O=C(Nn1cnc2ccccc2c1=O)c1ccc(F)cc1Cl,1,9,-1,10564,-51,-1,4.4
CCc1ccc(N2C(=O)Cc3c2nc(N)c(C#N)c3N)cc1,8,15,7,21928*,-50,12,2.8
CC(=NNC(=O)NC12CC3CC(CC(C3)C1)C2)c1ccccc1,2,13,12,.,.,.,-2.6
COc1ccc(N2CCN(Cc3cc(=O)oc4cc(-c5ccccc5)c(O)cc34)CC2)cc1,9,.,.,4809,-2,2,-1.9
COCCN(C(=O)COC(=O)CC(C)c1ccccc1)c1c(N)n(Cc2ccccc2)c(=O)[nH]c1=O (stereo not given),7,7,10,?,-23,-13,-0.2
COc1ccc(NC(=O)c2cccc(N3C(=O)C4CC=C(C)CC4C3=O)c2)c(OC)c1 (stereo not given),12,-1,-2,4546,0,7,5.3
CC(OC(=O)C1CCN(S(=O)(=O)c2ccc(C(C)(C)C)cc2)CC1)C(=O)N(C)C1CCCCC1 (stereo not given),-9,6,6,3177,-5,.,-3.2
Cc1cccnc1NC(=O)CSc1ccc2c(c1)OCCO2,4,6,-3,6484,-18,.,2.2
COc1ccc(N2CCN(C(=O)c3ccc(S(=O)(=O)N4CCOCC4)cc3)CC2)cc1,2,0,2,22765*,5,3,0.4
CC(C)CCC1(CCNC(=O)c2cccs2)CCOC(C)(C)C1 (stereo not given),6,3,-4,6036,-27,-5,4.7
CC(=O)Nc1ccccc1NC(=O)CC(C)=NNC(=O)Cc1cccc2ccccc12,-4,0,-5,.,.,.,-0.8
# Later entries
SMILES,ugtP null kill,Mtb hypoxia rep,Mtb hypoxia rep growth,Bead autofluor,PrP UTR inh,BJeLR viability,Sa RN4220 lethal
COC(=O)C(CCSC)NC(=O)CNS(=O)(=O)c1ccc(Br)cc1 (stereo not given),-4,-3,1,3247,-23,-19,-0.2
CCOC(=O)C(=O)Nc1nc(-c2ccccc2)c(-c2ccccc2)o1,-3,-8,-5,2245,-13,-3,-2.9
O=C(CSc1nc2c(oc3ccccc32)c(=O)n1CC1CCCO1)NCc1ccc(F)cc1 (stereo not given),9,1,-5,4063,-14,2,3.6
COc1ccc(OC)c(S(=O)(=O)N2CCCC(C(=O)NCc3ccco3)C2)c1 (stereo not given),7,19,9,5964,-6,10,0.1
CN(c1ccccc1)S(=O)(=O)c1cccc(NC(=O)C2CC(=O)N(Cc3ccccc3)C2)c1 (stereo not given),4,3,9,6424,-39,-6,4.3
CCOc1ccc2c(c1)cc(CN(C(=O)CC)C1CCCCC1)c1nnnn12,-11,6,8,3988,-27,-23,0.5
O=C(Nc1ccc2c(c1)OCO2)N1CCOCC1,0,4,9,8854,-18,-2,3.9
CCOC(=O)C1CCN(C(=O)C2CC(=O)N(c3ccc(C)cc3)C2)CC1 (stereo not given),6,7,8,9268,-12,0,4.9
CNCC(=O)N1CCN(c2ncc(C(F)(F)F)cc2Cl)CC1,5,10,8,3255,-5,-2,2.7
CC(C)NC(=O)C(C#N)=Cc1ccc(N(C)C)c(Br)c1,-9,3,2,.,.,.,6.6
COc1cc(C2OCC3C(c4ccc(O)c(OC)c4)OCC23)ccc1O (stereo not given),5,14,9,.,.,.,7.3
C=CCNC(=O)Nc1ccc2oc(C)nc2c1,7,4,4,5813,-10,4,6.5
CCOc1ccccc1CNC(=O)C1CCN(c2nnc(C)c3c(C)n(-c4ccc(C)cc4)nc23)CC1,.,.,.,12373,-12,-1,.
O=C(COC(=O)c1cc(-c2ccco2)nc2ccccc12)NCc1ccccc1,8,.,.,4197,-19,3,-11
CC1CC(C)CN(C(=O)CNS(=O)(=O)c2ccc(Br)s2)C1 (stereo not given),-13,-2,6,8638,-13,-2,12
C/C(=N/NC(=O)CNC(=O)C(c1ccccc1)c1ccccc1)c1ccco1,.,.,.,4238,-28,-17,.
CN(C)c1nc(OCCOC(=O)COc2ccc(Cl)cc2Cl)nc(N(C)C)n1,-7,-3,7,21324*,-5,0,3.4
O=C(CCc1nnc2ccc(NCc3ccccc3)nn12)N1CCC2(CC1)OCCO2,0,2,4,5677,-11,9,1.5
COc1ccc(C=NNC(=O)COc2ccc(Cl)cc2Cl)cc1Cn1nc(C)cc1C,-10,5,-4,.,.,.,3.6
CCOP(=O)(OCC)C(NC(=O)Nc1ccc(C)c(Cl)c1)c1ccccc1 (stereo not given),-5,12,6,2077,-13,1,-4.2
N#Cc1ccccc1NC(=O)CSc1cn[nH]n1,9,1,11,3534,-23,2,3.9
COc1ccccc1C(=O)NNC(=O)C(=O)NC(C)C,1,6,2,3449,10,6,2.4
O=C(C1CCCO1)N(c1cccc(Cl)c1)C1C=CS(=O)(=O)C1 (stereo not given),4,10,2,7342,10,16,3.1
CC(NC(=O)c1ccc(-c2ccccc2)cc1)C(c1ccccc1)N1CCOCC1 (stereo not given),2,3,4,9387,-3,.,6.3

# Filtered by structure, the entries above containing fluorine (nine)
SMILES,ugtP null kill,Mtb hypoxia rep,Mtb hypoxia rep growth,Bead autofluor,PrP UTR inh,BJeLR viability,Sa RN4220 lethal
C=CCn1c(CCNC(=O)c2ccccc2F)nnc1SCC(=O)Nc1ccccc1F,-1,-7,-4,4459,-13,-3,3.3
Cn1nc(C(F)(F)F)c(C#N)c1N1CCN(c2ccc(F)cc2)CC1,11,-4,-1,2934,0,-8,16
COc1ccc(C=NNc2nc(-c3ccc(Cl)cc3)cc(C(F)(F)F)n2)cc1OC,-11,-15,2,.,.,.,13
CCCCCN(C(=O)CCC(=O)OCc1cccc(F)c1)c1c(N)n(CCCC)c(=O)[nH]c1=O,0,0,-2,.,-7,-1,2.9
O=C(NCc1ccccn1)C1Nc2ccc(C(F)(F)F)cc2C2C=CCC12 (stereo not given),.,.,.,3738,-17,14,.
COc1cccc(C(=O)NCC(=O)OCc2ccc(F)cc2Cl)c1,6,3,-1,2569,-13,3,2.3
O=C(Nn1cnc2ccccc2c1=O)c1ccc(F)cc1Cl,1,9,-1,10564,-51,-1,4.4
O=C(CSc1nc2c(oc3ccccc32)c(=O)n1CC1CCCO1)NCc1ccc(F)cc1 (stereo not given),9,1,-5,4063,-14,2,3.6
CNCC(=O)N1CCN(c2ncc(C(F)(F)F)cc2Cl)CC1,5,10,8,3255,-5,-2,2.7

# Bioassay records deposited in PubChem BioAssay by several laboratories.
